Mtb MenB inh: blocks the Mycobacterium tuberculosis MenB enzyme; P9WNP5; MenB enzyme assay, absorbance read-out; some hits fall short of the stated cut; inhibition, %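 (about 12 µg/mL by stock and volumes)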; 100,000 compounds, 0.43% hits; AID 540299;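 active = mean of two replicates above 30%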;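 note: 0% = no compound and 100% = wells with inactive enzyme; the first replicate is given; strong numbers were not always called active; inactives centre near -10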
Mtb MbtI inh: blocks the Mycobacterium tuberculosis siderophore enzyme MbtI | purified MbtI enzyme, fluorescence intensity read-out | inhibition, %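 (about 17 µg/mL by stock and volumes)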 | 100,000 compounds, 0.89% hits;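 active = above 50% in both replicates, above 80% if mildly self-fluorescent; inactive = the rest, strongly fluorescent compounds included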;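 note: 0% = mean of negative and 100% = mean of positive controls; one replicate is shown; some compounds called inactive have numbers as strong as hits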
Polio RdRp inh: poliovirus RNA polymerase inhibition. P03300. poliovirus polymerase elongation, fluorescence polarization; hits give low values. % elongation, % (compound at 16.7 µg/mL). 150,000 compounds, 0.66% hits. AID 588519; in the data active = % elongation below about 90%; note: some results filed as inactive read as strong as hits
Target sequence (P03300 1749-2209 limits assumed): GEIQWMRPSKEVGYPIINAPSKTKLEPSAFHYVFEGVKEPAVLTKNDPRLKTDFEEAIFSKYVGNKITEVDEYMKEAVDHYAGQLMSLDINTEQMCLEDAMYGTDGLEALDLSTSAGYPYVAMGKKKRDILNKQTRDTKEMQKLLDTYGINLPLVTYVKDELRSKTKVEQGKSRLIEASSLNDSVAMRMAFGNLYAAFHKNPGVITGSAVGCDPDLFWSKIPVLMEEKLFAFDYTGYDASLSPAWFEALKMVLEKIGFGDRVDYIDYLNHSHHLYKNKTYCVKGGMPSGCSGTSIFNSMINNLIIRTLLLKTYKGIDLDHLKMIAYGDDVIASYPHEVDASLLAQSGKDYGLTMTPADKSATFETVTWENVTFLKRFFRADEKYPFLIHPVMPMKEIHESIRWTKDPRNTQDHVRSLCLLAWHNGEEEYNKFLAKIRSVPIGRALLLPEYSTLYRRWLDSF
Polio RdRp inh intensity: also measured in Polio RdRp inh; calls as there; % elongation; measured here: total intensity read-out; formula for this scale not given here;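 total fluorescence in place of polarization; lower means less elongation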
Numbers without * were called inactive; i = inactive; · = not tested or not shown.

entry | compound | Mtb MenB inh | Mtb MbtI inh | Polio RdRp inh | Polio RdRp inh intensity
1 | C=CCN(CC=C)C(=O)c1ccccc1F | -45 | -7 | 104 | 99
2 | CCn1c(C)nc2cc(O)ccc21 | · | 1 | 103 | 98
3 | COCCNC(=O)CN1CCC(NC(=O)Nc2ccc(C(F)(F)F)cc2)CC1 | -5 | -1 | 99 | 102
4 | CC(C)NC(=O)C(Sc1ccccc1)c1ccccc1 (configuration not stated) | -22 | -12 | 98 | 106
5 | Brc1ccc2[nH]cc(CNCCN3CCOCC3)c2c1 | 13 | -2 | 104 | 110
6 | C=CCN(c1ccc(OC)cc1)S(=O)(=O)c1cccc(C(=O)OC)c1 | 13 | 6 | 105 | 101
7 | O=C(COC(=O)c1ccc2ccccc2n1)Nc1ccc(Cl)c(C(F)(F)F)c1 | · | -10 | 103 | 112
8 | CNC(=O)NC(=O)C(Sc1nnc(-c2ccco2)n1Cc1ccccc1)c1ccccc1 (configuration not stated) | -7 | -1 | 105 | 102
9 | O=C(CSc1nc2ccccc2o1)C12CC3CC(CC(C3)C1)C2 | -9 | 1 | 99 | 101
10 | C/C(=C\C#N)n1nc(C)cc1N | · | -4 | 102 | 102
11 | O=C(COC(=O)Cc1ccsc1)Nc1ccccc1 | · | -5 | 100 | 99
12 | CCc1nnc(SCC(=O)N(CC)c2cccc(C)c2)c2cc3occc3n12 | 15 | -9 | 101 | 102
13 | COc1ccccc1C1=Nn2c(Cc3cccc4ccccc34)nnc2SC1 | -18 | 84 | 93 | 90
14 | CCOC(=O)/C(=N\Nc1cccc(C(F)(F)F)c1)N1CCCC1 | -21 | 10 | 102 | 104
15 | CN(C)Cc1ccc2ccc3cccc4ccc1c2c34 | · | i | 101 | 97
16 | O=C(Cn1ccc(=O)[nH]c1=O)Oc1ccc(Br)cc1Cl | -16 | 0 | 99 | 107

Five records drawn at random from the list so far:
entry | compound | Mtb MenB inh | Mtb MbtI inh | Polio RdRp inh | Polio RdRp inh intensity
16 | O=C(Cn1ccc(=O)[nH]c1=O)Oc1ccc(Br)cc1Cl | -16 | 0 | 99 | 107
12 | CCc1nnc(SCC(=O)N(CC)c2cccc(C)c2)c2cc3occc3n12 | 15 | -9 | 101 | 102
15 | CN(C)Cc1ccc2ccc3cccc4ccc1c2c34 | · | i | 101 | 97
14 | CCOC(=O)/C(=N\Nc1cccc(C(F)(F)F)c1)N1CCCC1 | -21 | 10 | 102 | 104
11 | O=C(COC(=O)Cc1ccsc1)Nc1ccccc1 | · | -5 | 100 | 99

Additional entries.
entry | compound | Mtb MenB inh | Mtb MbtI inh | Polio RdRp inh | Polio RdRp inh intensity
17 | Cc1occc1-c1nnc(SC(C)C(=O)NC2CCCc3ccccc32)n1-c1ccccc1 (configuration not stated) | -4 | -4 | 107 | 107
18 | Cc1ccc2c(c1)N(C(=O)N1CCC(C(=O)N3CCCCCC3)CC1)CC(C)O2 (configuration not stated) | -4 | -12 | 101 | 101
19 | CN(Cc1ccccc1)C1(O)C(=O)Nc2c(C(F)(F)F)cccc21 (configuration not stated) | -56 | -17 | 105 | 101
20 | CN(c1ccccc1)S(=O)(=O)c1ccc(N2CCCCS2(=O)=O)cc1 | -17 | -5 | 99 | 100
21 | CSc1[nH]c(=O)[nH]c(=O)c1C#N | -11 | 0 | 101 | 104
22 | Cc1nc2sccn2c1C(=S)NC(=O)c1ccccc1F | -124 | 15 | 95 | 93
23 | COC(=O)c1sccc1N(Cc1ccccc1)S(C)(=O)=O | -17 | -4 | 101 | 102
24 | c1ccc(Cn2c3ccccc3c3nnc(SCc4ccc5nonc5c4)nc32)cc1 | -19 | -9 | 99 | 100

(25) COCC(C)NC(=O)c1ccc(OC(C)=O)cc1 (configuration not stated)
(26) NC(N)=N/N=C/c1ccc2c(c1)OCO2
(27) c1ccc2c(c1)oc1c(NC3CCCC3)ncnc12
(28) CN1CC=C2C(C#N)=C(N)C(C#N)(C#N)C(Cc3ccccc3)C2C1 (configuration not stated)
(29) O=C(NCCN1CCOCC1)c1cc(NS(=O)(=O)c2cccs2)cc(NS(=O)(=O)c2cccs2)c1
(30) COc1ccc2c(c1)OCC1=C2CCC2(C)C(=O)CC=C12 (configuration not stated)
(31) O=C(Nc1ccc(N2CCOCC2)cc1)c1n[nH]c(=O)c2ccccc12
(32) O=C1c2cccc3c(N4CCCC4)ccc(c23)C(=O)N1c1ccccc1
(33) Cc1ccc(/C=N/NC(=O)CNc2cccc(C(F)(F)F)c2)o1
(34) O=C(c1cc2c(s1)CCC2)N(CCO)Cc1ccccc1

assay / entry	25	26	27	28	29	30	31	32	33	34
Mtb MenB inh	5	-1	-19	-163	-16	-29	-8	-5	-27	·
Mtb MbtI inh	·	28	1	88	-6	100	-8	-13	19	3
Polio RdRp inh	106	100	104	76	102	99	99	102	·	98
Polio RdRp inh intensity	110	102	100	195	105	117	107	125	·	98

Four of these compounds, reformatted.
(34) O=C(c1cc2c(s1)CCC2)N(CCO)Cc1ccccc1
  Mtb MenB inh: ·	Mtb MbtI inh: 3	Polio RdRp inh: 98	Polio RdRp inh intensity: 98

(33) Cc1ccc(/C=N/NC(=O)CNc2cccc(C(F)(F)F)c2)o1
  Mtb MenB inh: -27	Mtb MbtI inh: 19	Polio RdRp inh: ·	Polio RdRp inh intensity: ·

(27) c1ccc2c(c1)oc1c(NC3CCCC3)ncnc12
  Mtb MenB inh: -19	Mtb MbtI inh: 1	Polio RdRp inh: 104	Polio RdRp inh intensity: 100

(25) COCC(C)NC(=O)c1ccc(OC(C)=O)cc1 (configuration not stated)
  Mtb MenB inh: 5	Mtb MbtI inh: ·	Polio RdRp inh: 106	Polio RdRp inh intensity: 110

From PubChem
